LANA-H2B inh: blocks KSHV LANA binding to histone H2A/H2B | Q9QR71 | cell-free LANA-H2A/H2B peptide, fluorescence polarization | inhibition, % (concentration not given with the values) | actives 0.6% (n = 320,000) | AID 2629; in the data active means inhibition mostly above about 10%, no sharp cut-off; inactive means mostly below about 6.7%;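 further: stock transfer was 7.5 nL into about 10 µL; 0% = median of vehicle wells and 100% = median of positive control wells; one replicate is shown; the record names a cut of 25% in any replicate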
Target sequence (Q9QR71 whole entry, looked up): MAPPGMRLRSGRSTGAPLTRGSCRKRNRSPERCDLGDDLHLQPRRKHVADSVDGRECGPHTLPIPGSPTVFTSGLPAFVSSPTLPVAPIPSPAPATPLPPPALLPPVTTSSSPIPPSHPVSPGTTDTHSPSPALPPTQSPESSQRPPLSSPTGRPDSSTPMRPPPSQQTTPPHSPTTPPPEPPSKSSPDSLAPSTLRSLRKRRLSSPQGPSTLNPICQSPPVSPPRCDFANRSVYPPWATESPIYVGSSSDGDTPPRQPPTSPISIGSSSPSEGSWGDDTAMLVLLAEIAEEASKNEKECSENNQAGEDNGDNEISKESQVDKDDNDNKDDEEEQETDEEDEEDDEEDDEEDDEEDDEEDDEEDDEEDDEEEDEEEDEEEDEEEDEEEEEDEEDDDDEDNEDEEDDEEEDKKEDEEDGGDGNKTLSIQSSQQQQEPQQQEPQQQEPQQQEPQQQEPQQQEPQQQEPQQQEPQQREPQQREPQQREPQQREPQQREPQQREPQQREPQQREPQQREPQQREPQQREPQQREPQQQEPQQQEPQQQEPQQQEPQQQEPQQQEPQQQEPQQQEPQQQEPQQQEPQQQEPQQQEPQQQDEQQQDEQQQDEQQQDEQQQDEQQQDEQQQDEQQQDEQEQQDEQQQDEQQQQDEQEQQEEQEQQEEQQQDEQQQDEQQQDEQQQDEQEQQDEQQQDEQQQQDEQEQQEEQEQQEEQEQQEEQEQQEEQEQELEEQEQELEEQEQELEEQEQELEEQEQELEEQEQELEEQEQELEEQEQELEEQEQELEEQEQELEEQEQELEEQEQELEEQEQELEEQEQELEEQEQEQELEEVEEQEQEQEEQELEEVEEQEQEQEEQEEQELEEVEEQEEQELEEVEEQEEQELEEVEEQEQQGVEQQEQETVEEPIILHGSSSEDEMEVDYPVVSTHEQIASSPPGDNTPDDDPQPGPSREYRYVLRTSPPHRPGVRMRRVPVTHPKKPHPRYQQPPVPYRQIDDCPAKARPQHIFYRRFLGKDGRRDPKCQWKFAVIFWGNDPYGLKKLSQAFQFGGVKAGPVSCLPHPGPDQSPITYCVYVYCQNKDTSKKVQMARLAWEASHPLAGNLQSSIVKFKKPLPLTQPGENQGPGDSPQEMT
Vif TR-FRET: HIV-1 Vif–A3G interaction blockers – biochemical, TR-FRET, GST-Vif 1-94, biotin-A3G peptide, dose response retest, primary screen (AID 1117319); TR-FRET GST-Vif / biotin-A3G peptide binding; higher % means a stronger effect; test concentration not given here; strong numbers were not always called active; inhibition, %, or IC50 in µM where a hit was titrated; actives 0.57% (n = 260,000);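 active means above the screen mean plus three standard deviations and confirmed in dose response; inconclusive means results disagree or hit not tested in dose response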;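 further: Vif residues 1-94 fused to GST binding biotinylated APOBEC3G peptide 110-148; 0% = full assay without inhibitor and 100% = GST in place of GST-Vif; retest series ran down from 100 µM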
RanGTP-Imp inh: inhibitors of RanGTP-importin-beta interaction, primary screen, biochemical, FRET, CFP-Ran, YFP-importin-beta, homogeneous | cell-free CFP-Ran/YFP-importin-beta FRET ratio | inhibition, % (concentration not given with the values) | actives 1.1% (n = 300,000) | AID 2216;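 active means most replicates above 15%; inconclusive means exactly half above 15%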;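 further: 0% = DMSO wells and 100% = Ran loaded with GDP instead of GTP; wells of about 40 µL received 100 nL stock; the first replicate is given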
MLL AF4-AF9 inh: MLL-AF4/AF9 protein interaction inhibition | inhibition, % at 10 µM | P42568 | AlphaScreen, biotin-AF4 peptide binding to FLAG-AF9 | AID 651704 | actives 0.47% (n = 350,000);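 active means every replicate reaching a set inhibition limit, whatever the replicate mean, cut at about 25% in these data; inconclusive means mean inhibition reaches that limit but some replicates miss it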;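 further: 0% = plate neutral control median and 100% = total signal loss; the record names both 10 and 1 µM as test concentration; the first replicate is given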
T cruzi inh: T. cruzi replication inhibition; T. cruzi beta-gal in NIH3T3, luminescence, 90 h; actives 1.4% (n = 300,000); inhibition, % (no concentration beside the values); AID 1885;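 active means mean inhibition across valid replicates above about 55%, limit read from the data; inconclusive means mean below that limit but half or more replicates reach it; inactive means mean below it, under half of replicates reach it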;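 further: signal also drops with host cell toxicity which is not excluded here; 0% = plate median of DMSO wells and 100% = zero luminescence signal; higher percent means less beta-gal luminescence so fewer parasites; stock transfer was 50 nL into about 50 µL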
A1 inh: inhibitors of the anti-apoptotic protein A1, read as caspase activation; MEF A1-2A-BIM cells, Caspase-Glo 3/7 luminescence, 3 h; percent of clofoctol response, vehicle zero; caspase activation, % (test concentration not listed); actives 0.066% (n = 330,000); AID 2462;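 active means over half of replicate activation scores above 10%, or exactly half above 10 with the replicate mean above 10; inconclusive means replicate mean below 10 yet half the replicates above 10; inactive means over half of replicates below 10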;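 further: wells of about 30 µL received 50 nL stock; many hits fall short of the cut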
Beta cell apopt: blocks beta cell apoptosis | INS-1E cytokine-induced death, ATP luminescence, 48 h; percent of positive-control rescue, neutral wells zero | protection from apoptosis, % (no concentration beside the values) | actives 0.8% (n = 300,000) | AID 435005;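 active means all replicates at 75% or more, or half of them and the mean; inconclusive means half reach 75% but not the mean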;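 further: 0% = cytokine-treated negative control wells and 100% = positive control rescue; higher means more ATP so stronger rescue from cytokine killing; wells of about 40 µL received 100 nL stock; the first replicate is given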
Calb FLC: C. albicans growth modulation with fluconazole; C. albicans CaCi-2 (fluconazole-resistant clinical isolate) + fluconazole, Alamar Blue growth, 48 h; growth inhibition, % (concentration not given with the values); actives 0.57% (n = 300,000); AID 1979;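 active means most replicates above 75%; inconclusive means exactly half above 75%; inactive means most below 75%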;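 further: all wells also contain fluconazole at 8 µg/ml as a sub-toxic cotreatment; 0% = median of DMSO wells and 100% = median of geldanamycin control wells; wells of about 8 µL received 7.5 nL stock; the first replicate is given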
Numbers without * were called inactive; ? = inconclusive; . = not tested or not shown. This is a random part of the collection; any-hit rate near 4.3%.

SMILES	LANA-H2B inh	Vif TR-FRET	RanGTP-Imp inh	MLL AF4-AF9 inh	T cruzi inh	A1 inh	Beta cell apopt	Calb FLC
CN1c2ccccc2C2(C)CCCC3=Cc4cccc([N+](=O)[O-])c4OC312 (stereo not drawn)	5.1	.	-1.0	.	25	0.4	5	-14
O=C(O)CN(c1ccccc1[N+](=O)[O-])S(=O)(=O)c1ccccc1	-5.8	12%	4.6	-1.7	-9	-0.5	-5	-12
C=CCN=C(NC#N)SCCc1ccccc1	-0.8	26%	-0.7	.	5	1.2	0	11
O=C1Nc2ccc([N+](=O)[O-])cc2OC1CCN1CCCC1 (stereo not drawn)	-1.3	.	-3.2	-0.8	0	0.1	-4	?
O=C(C1CCCN(Cc2cccs2)C1)N1CCCCCC1 (stereo not drawn)	4.9	24%	7.8	.	23	0.9	-5	3
C[C@]12C=CC(=O)C=C1CC[C@@H]1[C@@H]2C(=O)C[C@@]2(C)[C@H]1CC[C@]2(O)C(=O)COC(=O)CCC(=O)O	-0.1	4%	3.3	-0.1	-9	-1.9	-3	2
c1ccc(-c2ccc(-c3[nH]ncc3CN3CCC(N4CCSCC4)CC3)cc2)cc1	-3.6	.	-2.3	11	41	?	9	-21
Cc1ccc(C(=O)NNC(=O)c2ccc(NS(=O)(=O)c3cccs3)cc2)s1	0.0	-7%	7.4	-3.2	-6	-0.7	2	.
CCc1ccc(NC(=O)C2CCN(S(=O)(=O)c3ccc4c(c3)NC(=O)CO4)CC2)cc1	.	-1%	-1.7	0.7	-5	.	.	5
COCCCN1C(=O)c2ccc(C(=O)Nc3ccc(OC)cc3OC)cc2C1=O	-8.2	0%	-1.5	.	-4	-0.4	0	-13
N/C(=N\c1nc2ccccc2o1)NC(=O)C(Cc1ccccc1)N1C(=O)c2ccccc2C1=O (stereo not drawn)	-0.1	-1%	2.2	.	1	-1.5	-2	-1
O=[N+]([O-])c1ccc(C2CCCC/C2=N/OCc2ccccc2F)c([N+](=O)[O-])c1 (stereo not drawn)	-8.0	2%	0.2	.	.	0.1	-6	23
Cc1nn(Cc2ccccc2)c(=O)c2nn(-c3ccc(Cl)cc3)c(C)c12	-3.5	-14%	-1.4	.	5	1.5	4	-14
O=C(NCc1cccnc1)C1c2ccccc2C(=O)N1C1CCCCCC1 (stereo not drawn)	3.5	-1%	-2.3	3.6	0	0.2	6	?
COC1=CC(=Cc2c(N)n3nc(CC(=O)N4CCCCC4)sc3nc2=O)C=C(OC)C1=O	-8.8	.	1.9	-2.4	-8	1.1	2	1
Cc1cn(-c2ccccc2)c(C)c1/C=N\Nc1nc(N2CCOCC2)nc(N2CCOCC2)n1	-2.2	-2%	-2.6	12	24	0.1	3	9
O=S(=O)([O-])CCC[n+]1c(SCCCS(=O)(=O)O)sc2ccc(Cl)cc21	3.9	-7%	-1.4	-112	5	0.6	-1	-8
Cc1cc(Br)ccc1SCC(=O)N1CCN(S(=O)(=O)c2ccccc2)CC1	1.5	.	-2.8	-1.8	21	0.0	-3	1
CC1CCCCC12NC(=O)N(CC(=O)OCC(=O)Nc1ccc(F)cc1[N+](=O)[O-])C2=O (stereo not drawn)	2.2	-2%	.	2.9	.	1.0	-4	.
CCC(CC)C(=O)Nc1cc(Cl)ccc1C	3.9	?	7.0	.	-14	2.0	.	-3
CCOc1ccc(CCNC(=O)COC(=O)c2ccc(OC(C)C)cc2)cc1OCC	3.0	-4%	.	-0.2	8	0.3	12	6
COc1ccccc1CC(=O)NCCN1CCCCC1	1.3	1%	0.2	-4.9	-1	-1.2	6	-6
CC(C)(C)C(=O)CSc1nc(N)cc(=O)[nH]1	-1.9	0%	-4.0	1.4	4	0.9	2	-6
COc1ccc(NC(=S)Nc2ccc(C)c(Cl)c2)cc1OC	2.3	4%	0.5	6.9	-3	-0.1	-13	?
O=C(Cn1cnc2c(cnn2-c2ccccc2)c1=O)OCc1ccccc1	-1.4	1%	-1.3	.	-21	-0.9	-3	20
CCOC(=O)CSC1=C(C#N)C(c2ccccc2)C(C(C)=O)=C(C)N1 (stereo not drawn)	11	-2%	-4.9	.	8	0.9	.	16
CCOc1cc(Cl)c(NC(=O)c2ccco2)cc1OCC	1.0	-5%	-0.7	.	-7	-1.4	2	-4
O=C(Nc1ccc(F)cc1)Nc1ccccc1F	1.3	.	-3.7	-1.9	-19	-7.3	20	-12
COC(=O)c1ccc(C(=O)OC)c(NC(=O)COC(=O)C2CCC(C(C)(C)C)CC2)c1 (stereo not drawn)	2.9	-2%	0.5	.	-9	0.6	-20	-13
COC(=O)c1c(NC(=O)C2c3ccccc3Oc3ccccc32)sc(C)c1C	-0.7	-18%	-3.1	.	10	0.1	17	18
CC(=O)NC(CC(=O)Nc1ccc(S(=O)(=O)NC2=NCCCCC2)cc1)c1ccccc1 (stereo not drawn)	1.2	-7%	.	0.8	.	1.9	-3	.
CCn1c(CNc2ccccc2Cl)nnc1SCC(=O)OC1CCCCC1	0.2	8%	-1.2	.	1	-1.0	-8	3
Cc1ccccc1NC(=O)CN1C(=O)C2C3CC(C(Br)C3Br)C2C1=O (stereo not drawn)	0.5	1%	4.3	5.7	-12	-0.2	-5	0
Cc1cc(C)cc(NCc2ccncc2)c1	1.3	.	-0.6	-0.4	-10	-0.3	0	0
COc1ccc(CN2CC[C@H]3C=CC[C@@H](C(=O)NCCc4ccccc4)[C@H]3C2=O)cc1OC	-0.2	.	-2.7	-1.7	-1	-0.8	-2	2
O=C(NC1=NCCS1)c1cccc(S(=O)(=O)N2CCc3ccccc32)c1	5.1	32%	-0.3	-1.1	10	-0.4	2	14
COc1cccc(C2SCC(=O)N2c2ccc(Cl)cc2)c1OC (stereo not drawn)	0.2	?	-1.9	4.9	13	-0.2	-1	0
O=C(c1ccc(S(=O)(=O)N2CCOCC2)cc1)N(Cc1ccco1)Cc1cccs1	4.6	-2%	?	.	0	-0.6	3	-3
CC1CN(S(=O)(=O)c2cccc(C(=O)NCC3COc4ccccc4O3)c2)CC(C)O1 (stereo not drawn)	0.1	-6%	.	3.0	.	0.4	2	.
CN(Cc1ccc2c(c1)OCO2)C(=O)c1cc(-c2ccccc2)c(N2CCOCC2)s1	0.5	?	.	9.0	.	0.8	0	.
Cc1ccccc1OCC(=O)NC1=NCCS1	-0.2	24%	2.5	.	-1	0.3	-17	20
CC(C)Nc1nc(-c2ccccc2)nc(-n2ccnc2)n1	4.2	24%	0.9	.	44	1.0	6	7
COc1ccc(CN2CCCC(C(=O)N3CCCC3)C2)c(OC)c1 (stereo not drawn)	-3.5	-1%	2.3	-6.6	50	1.1	-9	-2
CC(=O)N1CCc2cc(Br)cc(S(=O)(=O)NCCCN3CCCC(C)C3)c21 (stereo not drawn)	-1.9	2%	-2.5	.	-11	0.0	1	-4
O=C(COc1ccc(Cl)cc1Cl)Nc1ccc(C(=O)Nc2ccccc2C(=O)O)cc1	1.6	5%	1.6	-1.1	-6	1.8	-5	-1
CCCC(=O)N1CCN(c2nnc(-c3ccccc3)c3ccccc23)CC1	6.9	.	-1.6	-2.6	-6	0.7	0	14
O=C(c1cccc(F)c1)N1CCN(c2ccc([N+](=O)[O-])c(N3CCOCC3)c2)CC1	5.5	13%	?	.	7	0.2	6	-2
c1ccc(Cc2nn3c(-c4ccncc4)nnc3s2)cc1	4.6	3%	6.5	.	-18	0.0	-3	-9
COc1ccc(Cc2nc(-c3cccnc3)no2)cc1OC	4.0	10%	1.7	-1.1	0	-0.5	-2	35
CCCS(=O)(=O)n1nc(-c2ccc(C)cc2)cc1N	-1.8	3%	2.8	-1.6	-8	-0.1	-4	-1
Additional compounds follow.
SMILES	LANA-H2B inh	Vif TR-FRET	RanGTP-Imp inh	MLL AF4-AF9 inh	T cruzi inh	A1 inh	Beta cell apopt	Calb FLC
CCC(=O)OC1(C#CCOc2ccc(OC)cc2)CCN(C)CC1	2.8	3%	0.8	.	-7	0.7	-7	-14
NS(=O)(=O)c1cccc(NC(=O)CSc2nnc(C3CC3)n2Cc2ccccc2)c1	-5.4	-4%	-0.7	-62	6	-0.7	-2	-4
O=S(=O)(c1ccc(F)cc1)N1CCN(c2ccc(-c3ccccc3)nn2)CC1	-0.3	-15%	-3.0	0.2	23	-0.8	-1	-2
CCOc1ccc(OCC(=O)Nc2ccc(S(N)(=O)=O)cc2)cc1	-4.3	0%	3.0	-2.8	-1	0.9	-5	3
Cc1cc(C)n(-c2ccc([N+](=O)[O-])cc2-c2nn[nH]n2)n1	-1.6	3%	2.9	0.1	-6	0.1	5	-5
COc1ccc(CCN2C(=O)c3ccccc3NC2c2cc(Cl)c(O)c(OC)c2)cc1 (stereo not drawn)	2.3	.	-0.2	1.7	-7	1.0	5	22
CCCCOC(=O)N/N=C/C=C/c1ccccc1	6.8	.	-1.4	-1.3	17	-0.7	-5	-14
CC(C)Oc1ccc(S(=O)(=O)N(C(C)C)C(C)C)cn1	5.2	-1%	5.0	.	-9	-0.2	-6	-4
CCOc1ccc(Nc2nc(N)c([N+](=O)[O-])c(N3CCN(C)CC3)n2)cc1	2.5	2%	-2.4	4.0	-5	1.6	-4	-4
CN(C1CCCCC1)S(=O)(=O)c1ccc(S(=O)(=O)N2CCN(CCC#N)CC2)cc1	-14	-3%	-2.9	-1.9	9	0.7	-1	-9
O=S(=O)(Cc1ccccc1)N1CCc2ccccc21	-5.3	?	?	.	-2	-0.4	4	100*
Cc1ccc(-n2nccc2-c2nn(-c3cccc(C(F)(F)F)c3)c(=O)n(C)c2=O)cc1	0.7	-5%	4.3	-5.3	20	0.2	0	-22
CCN(CC)CCn1c2ccc(Cl)cc2c2nc(C)sc21	0.5	?	-3.6	16	45	0.0	8	14
O=C(Nc1nc2ccccc2[nH]1)c1ccc(Br)o1	1.1	1%	-1.6	2.0	0	-6.0	11	-11
Clc1ccc(/C=N/Nc2nc(Cl)nc3ccccc23)cc1	-1.5	-8%	?	.	-11	-1.5	13	-2
FC(F)(F)c1ccncc1-c1nnnn1-c1ccc(Cl)cc1	-6.7	.	3.5	-1.7	-5	0.0	-7	16
O=C(Cc1cccs1)N1CCN(c2ccc([N+](=O)[O-])cc2)CC1	0.4	-1%	2.9	1.8	7	0.1	2	-3
Cc1ccc([N+](=O)[O-])cc1S(=O)(=O)Nc1ccc(N2CCOCC2)cc1	-1.5	6%	0.5	4.7	8	-0.1	3	-3
COc1ccc(N2CCN(C(=O)CN3CCN(C(c4ccccc4)c4ccccc4)CC3)CC2)cc1	-2.1	.	-0.5	.	-12	0.4	.	43
CSCCC(NS(=O)(=O)c1ccc(Cl)cc1)C(=O)OCC(=O)c1c(C)[nH]c2ccccc12 (stereo not drawn)	3.1	-8%	0.6	.	-4	0.4	7	-11
Cc1ccc(NC(=O)CC(=O)NCCN2CCOCC2)cc1	-0.5	?	3.6	.	-26	0.1	-6	0
CSC1=NCCN1S(=O)(=O)c1ccc(NC(C)=O)cc1	9.9	6%	1.2	-2.3	1	0.8	0	17
